VDR inhibitor: blocks the human vitamin D receptor. P11473. VDR-SRC2-3 peptide fluorescence polarization, 2 h. Potency, µM, inactives show max response, negative = inhibition, usual class: inhibitors. 400,000 tested, 0.93% active. AID 504847; active = well fitted inhibition curve with a large enough effect; inconclusive = small, poorly fitted or top-dose-only effect, or another doubt; inactive = no such curve, though single readings can be large or run the other way; also: series mostly up to about 120 µM
Target sequence (P11473 whole entry, looked up): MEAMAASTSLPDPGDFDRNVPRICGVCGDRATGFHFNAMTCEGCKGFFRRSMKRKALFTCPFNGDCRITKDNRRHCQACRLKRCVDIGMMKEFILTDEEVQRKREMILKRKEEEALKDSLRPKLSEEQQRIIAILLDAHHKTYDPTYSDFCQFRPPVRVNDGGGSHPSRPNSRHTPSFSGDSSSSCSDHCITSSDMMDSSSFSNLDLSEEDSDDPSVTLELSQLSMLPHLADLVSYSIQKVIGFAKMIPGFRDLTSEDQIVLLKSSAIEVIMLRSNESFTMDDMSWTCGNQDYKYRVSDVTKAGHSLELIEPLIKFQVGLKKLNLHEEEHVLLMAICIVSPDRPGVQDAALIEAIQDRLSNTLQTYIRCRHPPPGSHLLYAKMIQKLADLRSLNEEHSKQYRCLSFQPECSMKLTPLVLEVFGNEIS
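Measured by FP: displacement of SRC2-3 coactivator peptide from VDR by library compounds, following a two-hour ambient incubation.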
Starred values were filed as active, the others as inactive; ? = inconclusive; & = joins results of further samples. % is scaled to controls: 0 for no effect and ±100 for the full control effect; potency is read from the fitted curve at half-maximal effect. This is a subset, so the mix of outcomes need not match the whole.

SMILES | VDR inhibitor
COc1ccc(NC(=O)c2cc(-c3cccs3)on2)cc1OC | 2%
O=C(O)c1cc(O)c2c(c1)[C@H]([C@H]1c3cc(C(=O)O)cc(O)c3C(=O)c3c(O[C@@H]4O[C@H](CO)[C@@H](O)[C@H](O)[C@H]4O)cccc31)c1cccc(OC3O[C@H](CO)[C@@H](O)[C@H](O)[C@H]3O)c1C2=O (stereo partly drawn) | ?
Cc1ccc(C(=O)Nc2c[nH]c(=O)[nH]c2=O)cc1 | -10%
Cc1ccc(C(=O)C(C)OC(=O)c2cc(=O)[nH]c3ccccc23)cc1 (stereo not drawn) | 11%
Cc1cccc(N(C(=O)CCC(=O)Nc2cc(C)on2)C(C(=O)NC2CCCC2)c2ccccc2)c1 (stereo not drawn) | -7%
C=CCNC(=O)c1cccn1-c1ccsc1C(=O)OC | 10%
COc1cc(OC)c(C(=O)Nc2ccc(C(=O)c3ccccc3)cc2)cc1OC | 22%
CC[C@@H](CCC=C(C)C)C(=O)N(Cc1ccccc1)c1ccccc1 | 3%
COc1ccc(CC(=O)NCc2nnc(SCCOc3ccccc3)n2C)cc1 | -2%
CCn1c(COc2ccc3c(c2)OCO3)nnc1SCC(=O)c1ccccc1 | -1%
S=c1[nH]nc(C2CCCCC2)n1/N=C/C=C/c1ccccc1 | -10%
Cc1ccc(S(=O)(=O)N(Cc2ccccc2)c2ccccn2)cc1[N+](=O)[O-] | 8%
COC(=O)N/N=C(\C)c1ccc(-n2ccnc2)cc1 | 5%
COc1ccc(C)cc1NC(=O)Cn1c(=O)ccc2cc(S(=O)(=O)N3CCCC3)ccc21 | -12%
COc1cc(OC)cc(C(=O)Nc2ccc3c(c2)n(C)c(=O)n3C)c1 | 5%

The final 2 entries of the section before open the next one.
SMILES | VDR inhibitor
COc1ccc(C)cc1NC(=O)Cn1c(=O)ccc2cc(S(=O)(=O)N3CCCC3)ccc21 | -12%
COc1cc(OC)cc(C(=O)Nc2ccc3c(c2)n(C)c(=O)n3C)c1 | 5%
Cc1cc(C(=O)CN2CCN(CC(=O)Nc3cccc(F)c3)CC2)c(C)n1C1CC1 | 1%
COc1cc(NC(=S)NCc2ccc(S(N)(=O)=O)cc2)c(OC)cc1Cl | -18%
NNC(=O)c1[nH]c(-c2ccccc2)cc1-c1ccccc1 | -20%
COc1ccccc1N1CCN(C(=O)c2ccc3c(=O)n4c(nc3c2)CCCCC4)CC1 | -6%
CC1CCCCC1NC(=O)c1ccc(-n2cncn2)cc1 (stereo not drawn) | 5%
O=C(CCc1nnc2ccc(NCc3ccccc3)nn12)NCC1CCN(C2CCCC2)C1 (stereo not drawn) | 7%
Nc1cccc2cccc([N+](=O)[O-])c12 | 0%
Cn1cnnc1SCC(=O)NC1CCCC1 | 4%
O=C(c1ccc(-c2ccc([N+](=O)[O-])cc2)o1)N1CCCCCCC1 | 35µM*
O=C(NCc1ccco1)C1CCN(c2nnc(-n3cccc3)s2)CC1 | -20%
O=C(Nc1ccc(OC(F)F)cc1)c1cc(S(=O)(=O)N2CCOCC2)ccc1F | 2%
CCS(=O)(=O)n1nc(-c2ccc(Cl)cc2)nc1N | -11%
CSc1ccc(CCNC(=O)c2cnc3c(C)cccn3c2=O)cc1 | 1%
Cn1c(=O)c2cc(S(=O)(=O)Nc3cccc(F)c3)ccc2n(C)c1=O | 2%
O=C(Nc1c2c(nn1-c1ccccc1)CS(=O)(=O)C2)c1ccc2c(c1)OCO2 | -24%

Four compounds out of the list, arranged by molecular weight, rising.
SMILES | VDR inhibitor
O=C(c1ccc(-c2ccc([N+](=O)[O-])cc2)o1)N1CCCCCCC1 | 35µM*
CSc1ccc(CCNC(=O)c2cnc3c(C)cccn3c2=O)cc1 | 1%
O=C(NCc1ccco1)C1CCN(c2nnc(-n3cccc3)s2)CC1 | -20%
COc1ccccc1N1CCN(C(=O)c2ccc3c(=O)n4c(nc3c2)CCCCC4)CC1 | -6%

Further records.
SMILES | VDR inhibitor
C=CCc1ccccc1OCC(O)CN1CCN(c2ccccc2)CC1 (stereo not drawn) | -5%
Cc1ccccc1NC(=O)CCN1C(=O)c2ccccc2Sc2ncccc21 | -3%
O=C1c2ccccc2NC(c2ccc(-c3ccccc3F)o2)N1O (stereo not drawn) | -13%
Cc1ccc(C2=C/C(=C/c3cccnc3)C(=O)O2)c(C)c1 | -19%
c1ccc2c(Nc3nc(-c4ccncc4)nc4ccccc34)cccc2c1 | 10%
CC1=C(C(=O)OCc2ccccc2)C(c2ccccc2Cl)NC(=O)N1CCCC(=O)O (stereo not drawn) | -20%
COc1cc(/C=N/O)c(Br)cc1OCC(=O)Nc1ccccc1C | -8%
S=C(NC1CCCCC1)N1CCN(c2ccccn2)CC1 | 1%
CCOc1ccc(N/C(SCc2cccc([N+](=O)[O-])c2)=C(/C#N)C(N)=O)cc1 | -19%
CCOc1cc(/C=C2/NC(=O)NC2=O)cc(Br)c1OCc1ccc(C(=O)O)cc1 | -9%
N#Cc1ccc(N2CCOCC2)nc1 | 17%
CCSC1=C(C#N)C(c2ccc(F)cc2)CC(=O)N1 (stereo not drawn) | -15%
CCCC(=O)Nc1ccc2nc(SCC(=O)Nc3nccs3)sc2c1 | 3%
O=C(O)/C=C/C(=O)N1CCN(C(c2ccccc2)c2ccccc2)CC1 | 0%
COc1ccc(NC(=O)COC(=O)c2cc(OC)c(OC)cc2NC(=O)c2ccco2)cc1OC | -9%
Cc1nc(C(F)(F)F)nc(Nc2ccc(Br)cc2)c1C#N | -18%
CC1(C)NC(=O)N(CCOCCOc2ccc3ccccc3c2Br)C1=O | -3%
COc1ccc(N2C(=O)c3ccccc3NC23CCC(C)CC3)cc1 (stereo not drawn) | 14%
Cc1ccsc1C(=O)OCc1nnc(-c2ccccc2)o1 | -12%
CCCCn1cnc2c(SCc3ccccc3F)nc(N)nc21 | 11%
CSCCC(NS(=O)(=O)c1ccc(C)cc1)C(=O)NCC(C)(C)N1CCOCC1 (stereo not drawn) | -9%
Cc1cccc(C(=O)N2CCCC(CCC(=O)N3CCN(c4ccccn4)CC3)C2)c1 (stereo not drawn) | -9%
N#Cc1cccc(NC(=O)COC(=O)c2ccc[n+]([O-])c2)c1 | -20%
CNC(=O)COC(=O)c1ccccc1C(=O)c1ccc(Cl)c([N+](=O)[O-])c1 | -17%
CC(NC(=O)c1cccc(N2CCCC2=O)c1)c1ccc2c(c1)OCCO2 (stereo not drawn) | -6%
CCNc1nc(NC(C)CC)nc(Oc2ccc(=O)[nH]n2)n1 (stereo not drawn) | 6%
C[C@H]1CN([C@@H](C)CO)C(=O)c2cccc(NS(=O)(=O)c3ccc(Cl)cc3)c2O[C@@H]1CN(C)CC1CCCCC1 | -4%
Cc1ccccc1CNC(=O)C(=O)NCC(c1cccs1)S(=O)(=O)c1cccs1 (stereo not drawn) | 15%
Cc1cc(C)c(C#N)c(N2CCN(Cc3ccccc3)CC2)n1 | -12%
CCN([C@H](CO)C(C)C)S(=O)(=O)c1ccccc1Br | ?
COc1cc2c(cc1OC)C(Cc1ccc(O)cc1)NCC2 (stereo not drawn) | -14%
O=C(COn1nnc2ccc(Cl)cc21)NCc1ccccc1 | 0%
Cc1ccc2occ(/C=N/NC(=O)c3ccccc3C)c(=O)c2c1 | -26%
O=C(O)c1ccc2c3c(cccc13)C(=O)N(c1ccccc1)C2=O | 27%
CCN(C(=O)COC(=O)CCOc1ccccc1)c1c(N)n(Cc2ccccc2)c(=O)[nH]c1=O | -3%
O=C(CCNC(=O)N1CC(=O)Nc2ccccc21)Nc1ccc(Cl)cc1 | -17%
CC1(C(=O)Nc2cccc(-n3cnnn3)c2)Cc2ccccc2C(=O)O1 (stereo not drawn) | 3%
CCC(C)(C)n1nnnc1CN1CCN(C(c2ccccc2)c2ccccc2)CC1 | 16%
C=CCNC(=S)NCc1ccc(CNC(=S)NCC=C)cc1 | -3%
O=P(c1ccccc1)(c1ccccc1)c1nc(-c2ccccc2)oc1N1CCOCC1 | -14%
CNC(=O)N(O)C1N(C)C(=O)N(Cc2ccccc2)C1(C)C (stereo not drawn) | 4%
COc1cccc(NC(=O)Cn2c3ccccc3c3nc4n(c(=O)c32)CCCS4)c1 | 7%
Cc1ccc(-c2nn(-c3ccccc3)cc2/C=C/C(=O)O)o1 | -10%
CCCN1C(=O)c2ccccc2NC1c1ccc(OC)c(COc2ccc([N+](=O)[O-])c(C)c2)c1 (stereo not drawn) | -11%
Cc1cc(OCC(=O)Nc2ccc(OCc3ccccc3)cc2)nc(C(C)C)n1 | 4%
CCOC(=O)C1(C)/C(=N/Nc2cccc(Cl)c2)C(=O)C(=O)N1c1ccccc1 (stereo not drawn) | ?
COCCn1c(=O)c(-c2cccc(Cl)c2)nc2cncnc21 | 0%
COc1ccc(CCNC(=O)C(=O)NCC2CCCN2S(=O)(=O)c2ccc(OC)cc2)cc1 (stereo not drawn) | -8%
Cc1ccc(Nc2c(-c3ccc(N(C)C)cc3)nc3ccccn23)cc1 | -26%
Clc1ccc(CN2CCC(Cc3ccccc3)CC2)cc1 | 3%
Cc1ccc2nc(/C(C#N)=C/c3ccc(-c4ccc(F)cc4F)o3)[nH]c2c1 | -13%
O=C(COC(=O)c1cccc(S(=O)(=O)N2CCc3ccccc32)c1)Nc1ncc(Cl)cc1Cl | -15%
Cc1ccc(C(=O)N2CCN(C(=O)CN3CCCC3)C2)cc1 | 12%
CN1CCN(Cc2oc(CO)cc(=O)c2O)CC1 | 15%
Cc1ccc(C)c(N2CCN(CCCNC(=O)Cn3cc4c(n3)CCC(C)C4)CC2)c1 (stereo not drawn) | 20%
O=c1[nH]nc2c3ccccc3cnn12 | -11%
COCCCNc1nc2c(c(=O)n(Cc3ccccc3)c(=O)n2C)n1C | 6%
CCCCN(C)CCCNC(=O)CCn1nc(-c2ccccc2)ccc1=O | ?
COc1cccc(COC(=O)C2CCN(S(=O)(=O)c3cccs3)CC2)c1OC | 2%
O=C(CN1CCOCC1)NN=C1CCCCCCCCCCC1 | 15%

A different layout for some results above:
Structure: CC1CCCCC1NC(=O)c1ccc(-n2cncn2)cc1 (stereo not drawn)
  VDR inhibitor: 5%
Structure: O=C(CCc1nnc2ccc(NCc3ccccc3)nn12)NCC1CCN(C2CCCC2)C1 (stereo not drawn)
  VDR inhibitor: 7%
Structure: Nc1cccc2cccc([N+](=O)[O-])c12
  VDR inhibitor: 0%
Structure: Cn1cnnc1SCC(=O)NC1CCCC1
  VDR inhibitor: 4%

(listing goes on)
SMILES | VDR inhibitor
Cc1ccc(C(=O)NC2CCCCC2)cc1S(=O)(=O)N1CCCC1 | 9%
CCc1ccccc1NC(=O)CSc1nc(C)c(C)o1 | -3%
CCOc1cc(S(=O)(=O)Nc2ccncc2)ccc1F | -15%
CC(C)(C)NC(=O)C1c2ccccc2Oc2ccccc21 | 2%
CCCn1c(C(C)Nc2nc(-c3cc(Cl)c(N)c(Cl)c3)cs2)nc2cc(Cl)c(N3CCCCC3)cc21 (stereo not drawn) | -1%
O=C(Nc1ccccc1Cl)N1CCCN(c2nc(-c3ccccc3)ns2)CC1 | -8%
CCCCc1ccc(NC(=S)NCc2cccc(OC)c2)cc1 | 8%
COC(=O)c1cc(NS(=O)(=O)c2ccc(NC(C)=O)cc2)cc(C(=O)OC)c1 | -5%
Cc1nc(-c2ccc(F)cc2)c(CC(=O)N(C)CC(=O)Nc2ccccc2Br)s1 | 12%
Cc1ccccc1NC(=O)c1cc2ccccc2o1 | -4%&14%
CCOc1ccc(CC2c3cc(OCC)c(OCC)cc3CCN2C(=O)c2cc(OC)c(OC)c(OC)c2)cc1OCC (stereo not drawn) | -4%
CNC[C@H](CC1CCCCC1)NC[C@H](CO)NCC1(c2ccccc2)CC1 | -12%
COc1ccnc(Nc2ccc(C)c(C)c2)c1C#N | 2%
COc1cccc(C2=NN(C(=O)CCCC(=O)O)C(c3cccs3)C2)c1 (stereo not drawn) | -11%
Cc1c(CC(=O)O)c(=O)oc2c(C)c3occ(-c4ccccc4)c3cc12 | -21%
O=C(Cn1cnc2c(oc3ccccc32)c1=O)NCc1ccccc1 | -6%
O=C(O)CCc1nn2c3ccccc3n(CC(=O)c3ccccc3)c2nc1=O | -16%
CN(C)S(=O)(=O)Oc1ccsc1C(=O)Nc1cccc(Cl)c1 | 9%
COc1ccccc1C(=O)NC(CCSC)C(=O)NC1CCCCCC1 (stereo not drawn) | -10%
COc1ccc(Cl)cc1NC(=O)CN(C)C(=O)C1CCN(C(=O)Nc2ccccc2)CC1 | 18%
C=CCN(Cc1cc(OC)ccc1OC)C(=O)c1cc2ccc(OC)cc2[nH]1 | 3%
Cc1ccc(C(=O)N/C(=C\c2ccc(Br)cc2)c2nc(=S)[nH][nH]2)cc1 | 1%
O=C(NCC1CCCO1)C1CCN(S(=O)(=O)N2CCCC2)CC1 (stereo not drawn) | -4%
COc1ccc(OC)c(C(c2nnnn2C2CCCC2)N2CCN(c3ccccc3F)CC2)c1 (stereo not drawn) | -5%
O=C1/C(=C\c2ccc(-c3ccccc3Cl)o2)SC(=S)N1CC1CCCO1 (stereo not drawn) | -8%
CCn1c(NCc2ccco2)nc2c1c(=O)n(C)c(=O)n2C | 13%
CCN(CC(=O)NCc1cccs1)S(=O)(=O)c1ccc([N+](=O)[O-])cc1 | 8%
Cc1cc(C)c2c(-n3cccc3)c(C(=O)NCc3cccc(F)c3)sc2n1 | 8%
COc1ccc(CCNc2oc(-c3cccc4ccccc34)nc2P(=O)(OC)OC)cc1OC | 4%
O=C(Nc1ccc(N2CCOCC2)cc1)c1cccc2ccccc12 | -5%
O=C(NC1CCCc2ccccc21)c1ccc(F)cc1F (stereo not drawn) | 11%
COc1ccc(NC(=O)C(=S)N2CCCC2)cc1 | -10%

From PubChem
